Compound activity: PubChem, several laboratories
RGS16-Gao HTS – modulators of RGS16 binding to Galphao, primary screen, biochemical, human proteins, multiplexed bead flow cytometry; binding response (% of control), % at 10 µM; bead-based flow cytometry RGS16-Galphao binding, fluorescence; actives lie on both sides; AID 1441, 2008; 220,000 compounds, 0.38% hits;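 active means below 25% or above 175%, edge rows of some plates excepted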;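 further: Galphao activated by GDP with aluminum fluoride before binding; 100% = wells without compound and 0% = beads without RGS; some results beyond the cut were filed as inactive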
Target sequence (O15492 whole entry, looked up): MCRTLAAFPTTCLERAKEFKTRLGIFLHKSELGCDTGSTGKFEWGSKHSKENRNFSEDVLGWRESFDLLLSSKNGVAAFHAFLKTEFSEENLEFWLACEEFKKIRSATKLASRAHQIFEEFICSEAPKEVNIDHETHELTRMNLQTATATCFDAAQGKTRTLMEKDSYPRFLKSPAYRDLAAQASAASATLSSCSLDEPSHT
Target sequence (P09471 whole entry, looked up): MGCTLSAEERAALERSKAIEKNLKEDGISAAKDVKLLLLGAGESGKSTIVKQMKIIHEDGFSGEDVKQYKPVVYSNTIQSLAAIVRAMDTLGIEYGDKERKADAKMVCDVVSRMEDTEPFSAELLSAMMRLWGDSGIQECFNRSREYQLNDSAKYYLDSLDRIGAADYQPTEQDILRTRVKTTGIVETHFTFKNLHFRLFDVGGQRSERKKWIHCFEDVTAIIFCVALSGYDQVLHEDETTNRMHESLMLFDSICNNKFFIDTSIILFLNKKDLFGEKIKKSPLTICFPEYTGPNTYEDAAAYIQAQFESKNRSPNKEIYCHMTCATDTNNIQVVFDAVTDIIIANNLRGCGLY
HSV augment – enhancers of HSV replication in host cells, fold increase, host cell viability; maximum fold increase; 220,000 compounds, 0.005% hits; AID 1956, 2009; HSV replication augmentation in cells;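 active means peak rise of 1.5-fold or more in the series; tested in PC3 cells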;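 further: first round at 10 µM; read as green reporter fluorescence; hits show the peak of a series up to 25 µM; 1 = signal of infected wells without compound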
PKD1 inh – inhibitors of human PKD1 kinase, biochemical, fluorescence polarization; Serine/threonine-protein kinase D1 (Homo sapiens), Q15139; PKD1 kinase fluorescence polarization assay; inhibition, %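 (about 10 µM by stock and volumes)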; 200,000 compounds, 0.056% hits; AID 797, 2007;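 active means inhibition of 50% or more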;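 further: controls were vehicle for no effect and a reference inhibitor for full effect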
INS promoter inh – inhibitors of insulin promoter-driven GFP, primary screen, imaging, TRM-6 cells (human fetal islet line), eGFP reporter, cell count; reporter expression induced with tamoxifen; inhibition, % at 2 µM; 130,000 compounds, 0.9% hits;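 active means inhibition above the mean plus 3 SD, with well images judged a real hit on visual review, cut at about 60% in these data, passing the limit was not always enough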
GALR2 ag – GALR2 receptor agonists, primary screen, cell-based; 140,000 compounds, 0.48% hits; GALR2-expressing cells, agonist activation read-out; Galanin receptor type 2 (Homo sapiens), O43603; activation, %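 (tested at 5 µM)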;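 active means above mean plus 3 SD of all compounds, about 5% in these data, not always enough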;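 further: 0% = vehicle buffer wells and 100% = reference agonist at full effect; tested in CHO reporter cells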
Target sequence (O43603 whole entry, looked up): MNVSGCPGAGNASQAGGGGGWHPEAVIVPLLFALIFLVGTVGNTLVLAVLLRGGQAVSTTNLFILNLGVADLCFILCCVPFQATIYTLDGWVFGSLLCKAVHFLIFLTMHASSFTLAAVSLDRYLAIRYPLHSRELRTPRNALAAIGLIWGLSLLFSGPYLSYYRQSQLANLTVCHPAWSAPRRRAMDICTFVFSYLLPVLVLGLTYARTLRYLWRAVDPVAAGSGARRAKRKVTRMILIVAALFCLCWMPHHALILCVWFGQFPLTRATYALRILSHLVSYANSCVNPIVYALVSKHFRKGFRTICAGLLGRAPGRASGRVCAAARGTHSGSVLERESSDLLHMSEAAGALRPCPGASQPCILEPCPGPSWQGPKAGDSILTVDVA
INS promoter inh cell count – further read-out of INS promoter inh, marked with its call; normalized cell count, %; measured here: cell count, toxicity; reference of the scale not given here;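 cells exposed to compound for 48 h; stained nuclei by imaging scaled within each plate; lower means fewer cells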
HSV augment primary fold – second read-out of HSV augment, no call of its own (marks repeat the call); fold increase; compound at 10 µM; measured here: primary screen fold increase 10 uM; tested in PC3 cells;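 GFP signal in the first replicate; 1 = infected wells without compound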
* hit, by the source's call.

`CCOC(=O)c1cnn(-c2ccccc2)c1-n1cccc1C(=O)C(=O)Nc1ccccc1` gave RGS16-Gao HTS 102, HSV augment inactive, PKD1 inh -11, INS promoter inh -41, GALR2 ag -0.6, INS promoter inh cell count 108 and HSV augment primary fold 0.84.
For C=CCn1c(SCC(=O)NC2CC2)nc2sc(CC)cc2c1=O the results were RGS16-Gao HTS 104, HSV augment inactive, PKD1 inh -4 and HSV augment primary fold 1.
For COc1ccc(C(CCNC(C)c2ccccc2)c2ccc(F)cc2)cc1 (stereo not given) the results were RGS16-Gao HTS 106, HSV augment inactive, PKD1 inh 3, GALR2 ag 1.1 and HSV augment primary fold 0.76.
Screening Cc1cccc(NC(=O)CN(c2ccc(C(C)C)cc2)S(=O)(=O)c2c(C)nn(C)c2C)n1 returned RGS16-Gao HTS 106, HSV augment inactive, PKD1 inh -10, GALR2 ag 0.2 and HSV augment primary fold 0.75.
`O=C(CN1C(=O)C2C3C=CC(C3)C2C1=O)NC1CCCc2ccccc21` (stereo not given) gave RGS16-Gao HTS 102, HSV augment inactive, PKD1 inh -9, INS promoter inh -36, GALR2 ag -2.9, INS promoter inh cell count 93 and HSV augment primary fold 0.99.
Screening COc1cccc(-c2csc(N3CCN(CC(=O)NNC(=O)c4ccco4)CC3)n2)c1 returned RGS16-Gao HTS 101, HSV augment inactive, PKD1 inh -10, INS promoter inh 18, INS promoter inh cell count 59 and HSV augment primary fold 1.
Screening COC(=O)C1=C(C(=O)OC)[C@@H]2N(C)c3ccccc3[C@@]23C[C@@H](C(=O)OC)N(C(=O)c2cccs2)C3=N1 returned RGS16-Gao HTS 104, HSV augment inactive and HSV augment primary fold 0.9.
CC(C)(C)OC(=O)N1CCN(C(=O)Nc2ccc3c(c2)OCCO3)CC1 was read as RGS16-Gao HTS 109, HSV augment inactive, PKD1 inh -6, INS promoter inh 22, INS promoter inh cell count 64 and HSV augment primary fold 0.93.
For CC1=C(C(N)=O)S(=O)(=O)c2ccccc21 the results were RGS16-Gao HTS 84, HSV augment inactive and HSV augment primary fold 1.
For COC(=O)[C@@H]1[C@@H](C#N)C2(c3ccccc3-c3ccccc32)N(c2ccc(Cl)cc2)N1C#N the results were RGS16-Gao HTS 68, HSV augment inactive, PKD1 inh 2, INS promoter inh -44, GALR2 ag -0.2, INS promoter inh cell count 82 and HSV augment primary fold 0.83.
`COC(=O)C1=C(C)OC(N)=C(C#N)C1c1c(C)nn(C)c1C` (stereo not given) gave RGS16-Gao HTS 102, HSV augment inactive, PKD1 inh -7, INS promoter inh -7, GALR2 ag 0.3, INS promoter inh cell count 112 and HSV augment primary fold 0.94.
C=CCN=Cc1sc2ccc(OCC)cc2c1O was read as RGS16-Gao HTS 99, HSV augment inactive, PKD1 inh 4, GALR2 ag -1.6 and HSV augment primary fold 0.86.
For Cc1ccc(NC(=O)CSc2nnc(NC(=O)c3ccco3)s2)cc1 the results were RGS16-Gao HTS 95, HSV augment inactive, PKD1 inh 3, INS promoter inh -21, INS promoter inh cell count 106 and HSV augment primary fold 1.1.
Screening CCC(=O)N1N=C(c2ccc(C)o2)CC1c1ccc(N(C)C)cc1 (stereo not given) returned RGS16-Gao HTS 101, HSV augment inactive, PKD1 inh -9, INS promoter inh -129, INS promoter inh cell count 81 and HSV augment primary fold 1.
Screening CC1(C)CC(=O)C=C(Nc2ccccc2)C1 returned RGS16-Gao HTS 97, HSV augment inactive and HSV augment primary fold 1.3.
CC(C)COc1cccc(C(=O)NC(=S)NCc2cccnc2)c1 was read as RGS16-Gao HTS 94, HSV augment inactive, PKD1 inh 1, GALR2 ag 0.0 and HSV augment primary fold 0.94.
COc1ccc(CCC(C)Nc2cccc(C)c2)cc1 (stereo not given) was read as RGS16-Gao HTS 98, HSV augment inactive, PKD1 inh 1, INS promoter inh -13, GALR2 ag -1.4, INS promoter inh cell count 73 and HSV augment primary fold 1.1.
Screening Cc1cc(NC(=O)CN2C(=O)[C@@H]3[C@H](C2=O)[C@@H]2C[C@H]3C(Br)C2Br)no1 (stereo not given in full) returned RGS16-Gao HTS 104, HSV augment inactive and HSV augment primary fold 1.
`CCC(C)C(=O)Nc1ccc(OC)cc1OC` (stereo not given) gave RGS16-Gao HTS 97, HSV augment inactive, PKD1 inh -6, INS promoter inh 22, GALR2 ag -1.7, INS promoter inh cell count 129 and HSV augment primary fold 1.1.
Screening COC(=O)c1c(-c2ccc(Br)cc2)noc1N returned RGS16-Gao HTS 93, HSV augment inactive, PKD1 inh 0, INS promoter inh 39, GALR2 ag -0.8, INS promoter inh cell count 87 and HSV augment primary fold 1.1.

Retrieved one by one from the list above, five records:
CC(C)COc1cccc(C(=O)NC(=S)NCc2cccnc2)c1 was read as RGS16-Gao HTS 94, HSV augment inactive, PKD1 inh 1, GALR2 ag 0.0 and HSV augment primary fold 0.94.
`CCC(C)C(=O)Nc1ccc(OC)cc1OC` (stereo not given) gave RGS16-Gao HTS 97, HSV augment inactive, PKD1 inh -6, INS promoter inh 22, GALR2 ag -1.7, INS promoter inh cell count 129 and HSV augment primary fold 1.1.
`O=C(CN1C(=O)C2C3C=CC(C3)C2C1=O)NC1CCCc2ccccc21` (stereo not given) gave RGS16-Gao HTS 102, HSV augment inactive, PKD1 inh -9, INS promoter inh -36, GALR2 ag -2.9, INS promoter inh cell count 93 and HSV augment primary fold 0.99.
Screening CCC(=O)N1N=C(c2ccc(C)o2)CC1c1ccc(N(C)C)cc1 (stereo not given) returned RGS16-Gao HTS 101, HSV augment inactive, PKD1 inh -9, INS promoter inh -129, INS promoter inh cell count 81 and HSV augment primary fold 1.
For CC1=C(C(N)=O)S(=O)(=O)c2ccccc21 the results were RGS16-Gao HTS 84, HSV augment inactive and HSV augment primary fold 1.

(cont.)
For CCC(CC)C(=O)c1c[nH]c(C(=O)O)c1 the results were RGS16-Gao HTS 100, HSV augment inactive, PKD1 inh 2 and HSV augment primary fold 1.1.
`CCC(C)OC(=O)C(C)Oc1ccc(-c2ccccc2)cc1` (stereo not given) gave RGS16-Gao HTS 199, HSV augment inactive, PKD1 inh 8, INS promoter inh -41, GALR2 ag -2.0, INS promoter inh cell count 85 and HSV augment primary fold 0.9.
`COCCCNC(=O)CSc1nc2sc(C(=O)OC)c(C)c2c(=O)n1N` gave RGS16-Gao HTS 100, HSV augment inactive, PKD1 inh -10, INS promoter inh -6, INS promoter inh cell count 116 and HSV augment primary fold 1.
Screening COc1ccc2nc(NC(=O)c3ccc(-n4nc(C)cc4C)cc3)sc2c1 returned RGS16-Gao HTS 96, HSV augment inactive, PKD1 inh -9, INS promoter inh -15, GALR2 ag -2.4, INS promoter inh cell count 130 and HSV augment primary fold 1.
COCCCNC(=S)NNC(=O)c1cccnc1 was read as RGS16-Gao HTS 101, HSV augment inactive, PKD1 inh 2, INS promoter inh 4, GALR2 ag -2.9, INS promoter inh cell count 123 and HSV augment primary fold 1.1.
`CCOC(=O)Cn1c(=O)oc2cc(S(=O)(=O)NC(C)c3ccccc3)ccc21` (stereo not given) gave RGS16-Gao HTS 102, HSV augment inactive, PKD1 inh -3, GALR2 ag -0.8 and HSV augment primary fold 0.83.
Screening O=C(NCCCNC(=O)c1cccs1)c1cccs1 returned RGS16-Gao HTS 100, HSV augment inactive, PKD1 inh 4, GALR2 ag -2.1 and HSV augment primary fold 1.
`Cc1nnc(SCCn2c(N3CCCCC3)nc3c2c(=O)[nH]c(=O)n3C)s1` gave RGS16-Gao HTS 92, HSV augment inactive, PKD1 inh -3, INS promoter inh -14, GALR2 ag -1.9, INS promoter inh cell count 97 and HSV augment primary fold 0.91.
Screening CCOC(=O)C1(Cc2cccc(OC)c2)CCN(C/C=C/c2ccccc2)CC1 returned RGS16-Gao HTS 107, HSV augment inactive, PKD1 inh 0 and HSV augment primary fold 1.
N#Cc1cccc(Oc2ccc(-c3cnc4ccccc4n3)cc2)c1C#N was read as RGS16-Gao HTS 102, HSV augment inactive, PKD1 inh 1, INS promoter inh 16, GALR2 ag -0.8, INS promoter inh cell count 89 and HSV augment primary fold 0.93.
O=C(NCc1ccc2c(c1)OCO2)c1nnc(Cc2ccc(Cl)cc2)o1 was read as RGS16-Gao HTS 101, PKD1 inh -2, INS promoter inh -15, GALR2 ag -0.5 and INS promoter inh cell count 144.
For CCCCn1c(SCC(=O)N2c3ccccc3CCc3ccccc32)nc2c1c(=O)n(C)c(=O)n2C the results were RGS16-Gao HTS 104, HSV augment inactive, PKD1 inh -2, INS promoter inh 47, GALR2 ag -0.9, INS promoter inh cell count 101 and HSV augment primary fold 0.91.
Screening CC1(C)S[C@@H]2[C@H](NC(=O)C(C(=O)O)c3ccccc3)C(=O)N2[C@H]1C(=O)O (stereo not given in full) returned PKD1 inh 0, INS promoter inh -26, GALR2 ag -1.0 and INS promoter inh cell count 66.
Cc1ccccc1CC1(CO)CCCN(C(=O)c2ccccc2Cl)C1 (stereo not given) was read as RGS16-Gao HTS 101, HSV augment inactive, PKD1 inh 6 and HSV augment primary fold 0.98.
For CCOC(=O)/C=C/C(=O)OCC(=O)NC(c1ccccc1)c1ccccc1 the results were RGS16-Gao HTS 110, HSV augment inactive, PKD1 inh -6, INS promoter inh 3, GALR2 ag -0.3, INS promoter inh cell count 4 and HSV augment primary fold 0.65.
Screening COCCOCCn1c(/C=C/c2ccccc2)nc2ccccc21 returned RGS16-Gao HTS 101, HSV augment inactive, PKD1 inh -1 and HSV augment primary fold 0.88.
`CCC1CN(C(=O)Nc2ccc(C)cc2)c2cc(C)ccc2O1` (stereo not given) gave RGS16-Gao HTS 103, HSV augment inactive, PKD1 inh -7, INS promoter inh 48, INS promoter inh cell count 161 and HSV augment primary fold 0.93.
For COC(=O)C1CCCN1C(=O)COc1ccc(Br)cc1Cl (stereo not given) the results were RGS16-Gao HTS 112, HSV augment inactive, PKD1 inh -1, INS promoter inh -438, GALR2 ag 1.1, INS promoter inh cell count 91 and HSV augment primary fold 0.94.
`CNC(=S)NC1CC2CCCC(C1)N2Cc1ccco1` (stereo not given) gave RGS16-Gao HTS 100, HSV augment inactive, PKD1 inh -19, INS promoter inh -29, GALR2 ag -0.6, INS promoter inh cell count 80 and HSV augment primary fold 1.1.
For CN(C(=O)Cn1c(=O)n(CCCCC(=O)NC2CCCC2)c(=O)c2ccccc21)C1CCCCC1 the results were PKD1 inh 7, INS promoter inh -263, GALR2 ag -1.1 and INS promoter inh cell count 60.
For Cc1cc(C)n2cc(CSc3nnnn3-c3ccc(Cl)cc3)nc2n1 the results were RGS16-Gao HTS 105, HSV augment inactive, PKD1 inh -7, INS promoter inh -14, GALR2 ag -0.9, INS promoter inh cell count 91 and HSV augment primary fold 0.97.
For CCCCN1C(=O)N(C)C2NC(=O)NC21 (stereo not given) the results were RGS16-Gao HTS 102, HSV augment inactive, PKD1 inh 0, INS promoter inh 4, GALR2 ag -2.0, INS promoter inh cell count 110 and HSV augment primary fold 1.
`Cc1nn(CCCC(=O)Nc2cccnc2)c(C)c1[N+](=O)[O-]` gave RGS16-Gao HTS 99, HSV augment inactive, PKD1 inh -8 and HSV augment primary fold 1.
Screening CC(=O)CSc1nnc(CSc2ncccn2)n1C1CCCCC1 returned RGS16-Gao HTS 98, HSV augment inactive, PKD1 inh -8, INS promoter inh 65, GALR2 ag -2.0, INS promoter inh cell count 85 and HSV augment primary fold 1.1.
`CCC(C(=O)NC(C)(C)C)N(Cc1ccco1)C(=O)Cn1nnc(-c2ccc(F)cc2)n1` (stereo not given) gave RGS16-Gao HTS 104, HSV augment inactive, PKD1 inh 0 and HSV augment primary fold 0.94.
Screening O=C(NC1CCCC1)C(c1ccccc1)N(Cc1ccc2c(c1)OCO2)C(=O)Cc1cccs1 (stereo not given) returned RGS16-Gao HTS 98, HSV augment inactive, PKD1 inh -1, INS promoter inh -246, GALR2 ag -0.9, INS promoter inh cell count 58 and HSV augment primary fold 1.1.
NC(=O)CC(NSc1ccccc1[N+](=O)[O-])C(=O)O (stereo not given) was read as RGS16-Gao HTS 99, HSV augment inactive, PKD1 inh 2 and HSV augment primary fold 0.67.
Screening CN(C)c1ccc(C(=S)N2CCN(C(=S)Nc3ccc(Cl)cc3)CC2)cc1 returned RGS16-Gao HTS 97, HSV augment inactive, PKD1 inh 0 and HSV augment primary fold 0.98.
`Cc1cccc(N(C)S(=O)(=O)c2ccc3[nH]cc(C(=O)N4CCOCC4)c(=O)c3c2)c1` gave RGS16-Gao HTS 97, HSV augment inactive, PKD1 inh -8, GALR2 ag 0.3 and HSV augment primary fold 0.94.
